StopGo FLuc = lowers the firefly signal of an FMDV 2A StopGo reporter; HEK cells with a luciferase reporter of 2A StopGo recoding; Potency, µM (doses to about 57.5 µM), without a hit: at the highest dose signal change, negative = less light; actives 0.23% (n = 120,000); AID 1745856; active = well fitted falling curve with a large enough effect; inconclusive = small, poorly fitted or top-dose-only effect; inactive = no such curve, though single readings can be large or run the other way; also: nearly all actives have a fitted effect of over 60% in size; overnight with compound
StopGo RLuc = FMDV 2A StopGo reporter, Renilla signal; HEK cells with a luciferase reporter of 2A StopGo recoding; Potency, µM (highest dose often 57.5 µM), inactives show top-dose signal change, negative = less light; actives 0.32% (n = 120,000); AID 1745857; active means well fitted falling curve with a large enough effect; inconclusive means small, poorly fitted or top-dose-only effect; inactive means no such curve, though single readings can be large or run the other way; also: nearly all actives have a fitted effect of over 55% in size; overnight with compound
Starred values were filed as active, the others as inactive; ? = inconclusive; & = joins results of further samples; [ ] = dose if it differs, or a comment. % is scaled to controls: 0 for no effect and ±100 for the full control effect; potency is read from the fitted curve at half-maximal effect.

SMILES | StopGo FLuc | StopGo RLuc
CCNC(=O)COc1ccc(-c2noc(-c3ccccc3)n2)cc1OC | 170%[activator] | 9%
COc1cccc(CNC(=O)c2cc3c(s2)-c2c(C)cccc2OC3)c1 | 11%&13% | 11%&-4%
Clc1cccc(Nc2ncnc3c2nc2n3CCCCC2)c1 | 8% | -1%
Cc1cccc(-c2nc(CC(=O)NC3CCCC(C(F)(F)F)C3)cs2)c1 (stereo not given) | 0% | 17%
COc1cc(C(=O)COC(=O)COc2cc(Cl)c(Cl)cc2Cl)cc(OC)c1OC | 14% | 21%
CN(C)S(=O)(=O)c1ccc(-c2nc(C#N)c(NCCCn3ccnc3)o2)cc1 | -3% | -10%
COc1ccc(N(C(=O)c2cccc(C)c2)S(=O)(=O)c2ccc(C)cc2)cc1 | -9% | 24%
Cc1ccccc1OCCN(C)Cc1cc(=O)oc2cc(O)ccc12 | -4% | -2%
O=C(NCCc1c[nH]c2ccccc12)OCc1cn(Cc2cc(F)cc(F)c2)nn1 | 7% | 7%
Cc1nc(-c2ccc(S(=O)(=O)Nc3ccc(F)cc3C)cc2)co1 | -25% | 80%[activator]
Fc1ccc(CNCc2cccc3ccccc23)cc1 | 0% | 13%
CCc1ccc(S(=O)(=O)c2cn(C)c3cc(N4CCCC4)c(F)cc3c2=O)cc1 | 6% | 36%[activator]
CN(C)c1ccc(CNc2nc(-c3ccco3)nn2S(=O)(=O)c2ccc(Cl)cc2)cc1 | 0% | -14%
O=C(CSc1nnc(-c2ccccc2)n1-c1ccc(Cl)cc1)Nc1ccc2cn[nH]c2c1 | 8% | 5%
COc1cc(-c2noc(-c3ccc(N4CCOCC4)c([N+](=O)[O-])c3)n2)cc(OC)c1OC | ? | 3%
CCc1cc2c(Sc3ccc(C(F)(F)F)cn3)ncnc2s1 | 30% | -13%
CCOC(=O)Nc1ccc2c(CN3CCC(C(=O)OCC)CC3)cc(=O)oc2c1 | -3% | -8%
Cc1ccc(N2C(N)=C(C#N)C3(C(=O)Nc4ccc(C)cc43)C3=C2CC(C)(C)CC3=O)cc1 (stereo not given) | -11% | -8%
O=C(Nc1ccc(F)c(F)c1)c1cc(S(=O)(=O)NC2CCCCCC2)ccc1F | ? | 0%
O=C(NCc1ccccc1)c1ccc(CSCc2ccccc2Cl)o1 | 20% | 0%
c1ccc(C(=NN=C2CCCCCC2)c2ccccc2)cc1 | 7% | -7%
O=S(=O)(Nc1nc2ccccc2nc1Nc1cccc(Br)c1)c1ccc(F)cc1 | ? | ?
CN(C)c1ccc(C=O)s1 | 0% | 0%
Cc1ccc2oc(=O)cc(CN3CCN(c4ccc(F)cc4)CC3)c2c1 | 0% | -1%
CC(C)[C@H](NC(=O)OCc1ccccc1)C(=O)OCc1ccccc1 | 23% | 5%

Remaining list, next part
SMILES | StopGo FLuc | StopGo RLuc
COc1ccc(C(=O)N2CCN(c3oc(-c4cccs4)nc3C#N)CC2)cc1 | -3% | -9%
Cc1ccc(C)c(NC(=O)Cn2ncc3c([nH]c4ccccc43)c2=O)c1 | 0% | -19%
Cc1cc(F)ccc1NC1(c2ccccc2)C(=O)c2ccccc2C1=O | -25% | -17%
COc1ccc(OC)c(C2SCC(=O)Nc3c2c(C)nn3-c2ccccc2)c1 (stereo not given) | -1% | -2%
CCOC(=O)C1=C(C)NC2=C(C(=O)c3ccccc32)C1c1ccc(OCc2ccccc2)cc1 (stereo not given) | 6% | -3%
Cc1ccc(C)c(C(=O)COC(=O)c2ccc(C(=O)c3ccccc3)cc2)c1 | 0% | -7%
CN(C)c1ccc(CNC(=O)C2CCN(S(=O)(=O)c3ccc4c(ccn4C)c3)CC2)cc1 | -17% | 40%[activator]
C[C@@H]1C[C@H](C)CN(C(C(=O)O)c2cn(Cc3ccccc3)c3cc(C(=O)O)ccc23)C1 (stereo not given in full) | -2% | -19%
Cc1cc(N2CCCCCC2)n2nc(Cc3ccccc3)nc2n1 | 4% | 63%[activator]
CCCCc1ccc(-n2nc3cc(Cl)c(NC(=O)c4ccc(OC)cc4)cc3n2)cc1 | 40%[activator] | -7%
N#Cc1ccccc1Cn1cnc2nc3c(cc2c1=O)CCCC3 | -8% | -11%
COc1cc2c(cc1OC)C(COc1ccc3c(C)cc(=O)oc3c1)N(C(=O)c1cccc(OC)c1OC)CC2 (stereo not given) | -10% | 15%
CC(C)(CNC(=S)Nc1ccc(SC(F)F)cc1)N1CCCCC1 | 7% | -13%
Cc1oc(-c2ccccc2F)nc1CS(=O)(=O)CC(=O)NCCN(CC(C)C)CC(C)C | -12% | -2%
CCCCN(CCCC)CCNC(=O)Cn1nc(CC)n2c(cc3sccc32)c1=O | 3% | -2%
CC1CCCC/C1=N\NC(=O)CCC(=O)Nc1ccc(Br)cc1 (stereo not given) | ? | ?
Cn1c(=O)c2c(c3ccccc31)OC(=O)CC2c1ccc(C(F)(F)F)cc1 (stereo not given) | -9% | 5%
CC(=O)NC1C(=O)N(CCOc2ccccc2)c2ccc(C)cc21 (stereo not given) | 51%[activator] | -1%
CCOc1ccc(-c2nc(SCC(=O)c3ccccc3)n[nH]2)cc1 | 98%[activator] | 31%[activator]
COc1ccc2c(c1)/C(=N/OC(=O)c1cc(SC)ccc1Cl)CCC2 | -2% | -11%
COc1ccc(C(=O)Nc2c(C(=O)c3ccc(F)cc3)oc3ccccc23)cc1 | -26% | -16%
Cc1cc2oc(=O)cc(CN3CCCCCCC3)c2cc1C | 0% | -4%
Cc1ccc(OCC(=O)N2CCC(NC(=O)c3ccccc3)CC2)c(C)c1 | 6% | 239%[activator]
COc1ccc(C2CCCN2Cc2coc(-c3ccc(C)cc3C)n2)cc1 (stereo not given) | 0% | 0%
CCCCN(CCCNC(=O)CN1N=C(c2ccccc2)CCC1=O)c1ccccc1 | -15% | 6%

2 entries from above, reformatted:
> Cc1ccc(C)c(NC(=O)Cn2ncc3c([nH]c4ccccc43)c2=O)c1
  StopGo FLuc: 0%
  StopGo RLuc: -19%

> O=C(CSc1nnc(-c2ccccc2)n1-c1ccc(Cl)cc1)Nc1ccc2cn[nH]c2c1
  StopGo FLuc: 8%
  StopGo RLuc: 5%

Compounds shown so far that have a furan ring, fused or not (3):
SMILES | StopGo FLuc | StopGo RLuc
CN(C)c1ccc(CNc2nc(-c3ccco3)nn2S(=O)(=O)c2ccc(Cl)cc2)cc1 | 0% | -14%
O=C(NCc1ccccc1)c1ccc(CSCc2ccccc2Cl)o1 | 20% | 0%
COc1ccc(C(=O)Nc2c(C(=O)c3ccc(F)cc3)oc3ccccc23)cc1 | -26% | -16%

The results go on.
SMILES | StopGo FLuc | StopGo RLuc
CCOC(=O)Cc1ccc(NC(=O)NCc2ccc3c(c2)CCN3C(=O)CC)cc1 | 4% | -13%
CCOC(=O)N1CCN(Cc2cc(=O)oc3ccc(Cl)cc23)CC1 | -12% | -13%
O=C1CCSc2ccc(C(=O)NNC(=S)NCc3ccccc3)cc2N1 | 6% | 9%
CC(OC(=O)C1=NNC(=O)CC1)C(=O)c1c[nH]c2ccccc12 (stereo not given) | 12% | -1%
Cc1nc2ccc(C(=O)OC(C)C(=O)NC3CC3)cc2nc1C (stereo not given) | 167%[activator] | 7%
Cc1ccc(OC(C)C(=O)NCC2(N3CCOCC3)CCCCC2)cc1C (stereo not given) | -17% | 19%
Cc1ccc(-c2nc(CS(=O)(=O)CC(=O)NCCCSC3CCCCC3)c(C)o2)cc1 | -5% | -6%
O=C(CCc1ccco1)NCc1ccc(OCc2ccccn2)cc1 | 69%[activator] | 8%
Cc1nc2ccc(C(=O)NCC3CCC3)cc2nc1C | 129%[activator] | 22%
Cn1c(COc2ccccc2Cl)n[nH]c1=S | 20% | 14%
O=C(COC(=O)C1COc2ccccc2O1)NC(=O)NC1CCCCC1 (stereo not given) | 13% | -6%
COC(=O)c1ccc(NC(=O)CSc2n[nH]c(-c3ccccc3)n2)cc1 | -1% | 30%
CC(NC(=O)c1ccc2c(c1)C(=O)c1ccccc1-2)C1CC2CCC1C2 (stereo not given) | -14% | -2%[1.06 µM]
CCc1cccc2c(C(=O)C(F)(F)F)cn(CCOc3ccccc3F)c12 | 0% | 18%
O=C1C(=O)N(C2CCN(C(=O)c3ccc(Cl)cc3)CC2)CCN1Cc1ccc(F)cc1 | -8% | -5%
O=Cc1cccc(OCc2ccc(Br)cc2)c1 | 52%[activator] | 9%
CCN(C(=O)CCc1ccccc1)C1CC(=O)NC1=O (stereo not given) | 18% | 12%
COc1cccc(C(=O)NCC(c2ccc(N(C)C)cc2)N2CCc3ccccc32)c1OC (stereo not given) | 29% | 2%
CCc1cccc(C)c1NC(=O)Cn1ccn(-c2cccc(OC)c2)c(=O)c1=O | -19% | -4%
CCCN1CCN(CCNC(=O)Nc2ccc(OC)cc2OC)CC1 | -19% | -10%
Cn1c(=O)n(C/C=C/c2ccccc2)c(=O)c2c1nc1n2CCN1c1ccc(F)cc1 | -6% | -9%
CN(Cc1cccc(C(F)(F)F)c1)C1CCN(C(=O)c2cncc(Br)c2)CC1 | -1% | 2%
CCOC(=O)c1cc(-c2ccccc2)n(CC(=O)NCc2ccccc2)c1C | -9% | -5%
CN(Cc1ccsc1)C(=O)CSCc1cccs1 | 208%[activator] | 30%[activator]
COc1cccc(N(CC(=O)N2CCC(C(N)=O)CC2)S(=O)(=O)c2ccc(C)cc2)c1 | 4% | 24%

Reformatted field by field: entries from further up.
O=Cc1cccc(OCc2ccc(Br)cc2)c1
- StopGo FLuc = 52%[activator]
- StopGo RLuc = 9%
CCN(C(=O)CCc1ccccc1)C1CC(=O)NC1=O (stereo not given)
- StopGo FLuc = 18%
- StopGo RLuc = 12%
COc1cccc(C(=O)NCC(c2ccc(N(C)C)cc2)N2CCc3ccccc32)c1OC (stereo not given)
- StopGo FLuc = 29%
- StopGo RLuc = 2%
CCc1cccc(C)c1NC(=O)Cn1ccn(-c2cccc(OC)c2)c(=O)c1=O
- StopGo FLuc = -19%
- StopGo RLuc = -4%

Additional compounds follow.
SMILES | StopGo FLuc | StopGo RLuc
COc1ccc(N2C(=O)CSC23C(=O)N(CC(=O)NCCc2ccccc2)c2ccccc23)cc1 (stereo not given) | -15% | 9%
COc1ccc(-c2csc3nc(C)nc(NCCCO)c23)cc1OC | 0% | 10%
Cc1cc2oc(=O)c(CC(=O)O)c(C)c2c2occ(-c3ccccc3)c12 | 23% | 11%
CCCC(=O)Nc1nnc(SCc2cc(=O)c3cc(C)ccc3[nH]2)s1 | 8% | -16%
O=C(NCCc1ccccc1)c1ccc(CS(=O)(=O)Cc2ccccc2Cl)o1 | -13% | 8%
O=C(Nc1ccc2oc(-c3cccc(F)c3)nc2c1)c1ccc([N+](=O)[O-])o1 | 35%[activator] | -2%
Cc1nn(-c2ccc(Cl)nn2)c2c1C(c1ccc(C(=O)O)cc1)CC(=O)N2 (stereo not given) | -6% | -16%
O=C(OCC1CCCO1)c1ccc(O)cc1 (stereo not given) | 115%[activator] | 7%
COc1cccc(/C=C2/C(=O)c3ccccc3OC2c2ccccc2)c1 (stereo not given) | 1% | 6%
N#CC(C(N)=S)=C1CCCCC1 | 16% | -2%
O=C(c1cc(-c2ccco2)[nH]n1)N1CCN(c2ccc(N3CCOCC3)nn2)CC1 | 15% | -10%
COC(=O)c1c(C)[nH]c(C(=O)OCC(=O)Nc2ccc(Cl)cn2)c1C | 28% | 4%
COc1ccc(NC(=O)c2sc3nc(C)c(C(=O)Nc4ccc(C)cc4C)c(-c4ccc(Cl)cc4)c3c2N)cc1 | -14% | -11%
NC(=O)CSc1ncc2c(n1)-c1ccccc1N(Cc1ccc(F)cc1)S2(=O)=O | -4% | 0%
Cc1c(C(=O)Nc2ccc(C(F)(F)F)cc2)oc2ccccc12 | 120%[activator] | -6%
CSC(=S)NN=C1CCCCC1 | 76%[activator] | -8%[1.06 µM]
Cc1ccc2nc(NCC(=O)OC(C)C)nc(-c3ccccc3)c2c1 | -10% | -10%
Cc1cccc(/C=N/NC(=O)c2cccs2)n1 | 202%[activator] | 14%
CN(CCOc1ccccc1)C(=O)c1cnc2ccccc2n1 | 171%[activator] | 9%
COc1ccc(-c2cc(C(=O)NCCc3ccc(OC)c(OC)c3)c3c(-c4ccc(F)cc4)[nH]nc3n2)cc1 | 1% | 10%
Cc1ccc(NC(=O)c2ccc(Cl)c(Cl)c2)nc1 | 267%[activator] | 4%
O=C(Nc1ccc(F)c(Cl)c1)C1CCN(c2ncccn2)CC1 | -11% | -16%
CC1CCN(C(C)C(=O)Nc2cccc(C#N)c2)CC1 (stereo not given) | 3% | 3%
Cc1ccc(C)c(CN2C(=O)c3ccccc3S(=O)c3ccc(C(=O)N4CCN(c5ccccc5F)CC4)cc32)c1 (stereo not given) | 0% | 23%
Cc1cc(F)ccc1NC(=O)C1CCC(CNS(=O)(=O)c2ccc3c(c2)CCCC(=O)N3)CC1 (stereo not given) | -17% | -1%
Cc1ccccc1NC1C2CC3CC(C2)CC1C3 (stereo not given) | 20% | 2%
Cc1ccc(Cn2c(=O)c3cccnc3n(Cc3ccc(C)cc3)c2=O)cc1 | -19% | -15%

A portion of the library; count on the stated rates, not on these rows.
